Screening results: PubChem BioAssay, GNF / Scripps  Winzeler lab
liver stage: Plasmodium liver-stage growth inhibition, dose response, imaging, Malaria Box, P. yoelii, HepG2-A16-CD81EGFP (AID 602156). P. yoelii liver stage in HepG2-A16-CD81EGFP, imaging; first-round cut-off not given here. calls after a first round at 10 µM; hits with a dose series show IC50 in µM. 5,700 tested, 4.8% active; in the data active means a potency from the dose series;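 further: infected cells exposed to compound for 48 hours before fixation; stained parasite area by imaging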
Starred values were filed as active, the others as inactive; i = inactive.

smiles	liver stage
COc1cc2nc(NCc3ccccn3)n3nc(-c4ccccc4)nc3c2cc1OC	i
CCCCCc1ccc(C(=O)N(CCCC(C)Nc2cc(OC)cc3cccnc23)Cc2ccc(OC)c(OC)c2)cc1 (stereo not given)	i
O=C(NN=CC1CC=CCC1)c1ccc([N+](=O)[O-])cc1Cl (stereo not given)	i
Cn1cnc2cc(OC3CCN(Cc4ccco4)CC3)ccc21	i
Clc1ccc(-c2nc3ncc(Cl)cc3[nH]2)cc1	i
COc1ccc(-c2cc(C(F)(F)F)n3nc(C(=O)NC4CCCCC4)c(Cl)c3n2)cc1OC	i
O=C(CCNS(=O)(=O)c1ccc(Br)s1)N1CCc2ccccc2C1	i
Cc1ccn2c(NC(C)(C)CC(C)(C)C)c(-c3ccccc3OC(=O)CC(C)C)nc2c1	i
CN1CCc2c(sc3nc(SCc4ccc(F)cc4)n(-c4ccccc4)c(=O)c23)C1	i
CN(C)c1ccc(C(=C2C=CC(=[N+](C)C)C=C2)c2ccc(N(C)C)cc2)cc1	i
Cc1cc(NC(=O)c2ccc(Br)cc2)no1	i
COc1cc(NC(C)CCCN(Cc2ccc(N(C)C)cc2)C(=O)C(Cl)Cl)c2ncccc2c1 (stereo not given)	i
CCCCCCN(C(=O)Nc1cccc(C#N)c1)C(CC)c1nc2ccccc2c(=O)n1CCC(=O)OC (stereo not given)	i
CN1CCN(c2nc(Nc3ccc(O)cc3)nc3ccccc23)CC1	i
CC(C)CCNC(=O)CN1C(=O)c2cccnc2Oc2ccccc21	i
COC(=O)C1=CNC=C(C(=O)OC)C1c1ccc(Cl)c([N+](=O)[O-])c1	i
CCCCOC(=O)c1ccc(NC2=C(c3ccc(OC)cc3)C(=O)c3ccccc32)cc1	i
CCCCCCN(C(=O)c1ccc2c(c1)OCO2)C(CC)c1nc2ccccc2c(=O)n1-c1ccccc1OC (stereo not given)	i
CCN1C(=CC=Cc2oc3ccc(-c4ccccc4)cc3[n+]2CC)Oc2ccc(-c3ccccc3)cc21	i
CCCCCCN(C(=O)c1ccc(CC)cc1)C(CC)c1nc2ccccc2c(=O)n1-c1cccc(Cl)c1 (stereo not given)	i
COc1ccc(C=Cc2cc[n+](C)cc2)cc1OC	i
CCOc1ccc(-n2cc(-c3ccccc3)c3c(SCc4cc(C)ccc4C)ncnc32)cc1	i
OC(CNC1CCCCC1)Cn1c2ccccc2c2ccccc21 (stereo not given)	3.9µM*
O=C(NCc1ccccc1)c1cnc(NCCC(c2ccccc2)c2ccccc2)nc1NC1CC1	i
COc1ccc(NC2=C(N3CCCCC3)C(=O)c3ccccc3C2=O)cc1	i
CC1=C(C(=O)OC(C)C)C(c2ccccc2Cl)C2=C(CC(c3ccccc3)CC2=O)N1 (stereo not given)	i
COc1ccc(C)cc1Nc1nc(N)c2cc(OC)c(OC)cc2n1	i
C/C(=C\c1ccccc1)CN(C(=O)c1ccc(C(C)(C)C)cc1)C(C)C	i
COc1ccc(-c2csc3ncn(N)c(=O)c23)cc1	i
O=C(COc1cccc(Cl)c1)Nc1nccs1	i
CC(C)CNc1nc(NCCCN)ncc1C(=O)NCCc1ccccc1	i
CCC(C(=O)N(C)CCCNc1ccnc2cc(Cl)ccc12)c1ccccc1 (stereo not given)	i
CCNC(=O)/C=C/c1ccc(C(C)(C)C)cc1	i
CCOC(=O)c1c(NC(=O)c2ccc(S(=O)(=O)N(C)c3ccccc3)cc2)sc2c1CCN(C(=O)OCC)C2	i
C=C(c1ccccc1)[n+]1ccc(C=Cc2ccccc2O)cc1	i
COc1ccc(/C=C/c2ccc3ccccc3[n+]2C)cc1OC	i
O=C(NCCc1ccccc1)C(=O)NN=Cc1ccccc1	i
CCOC(=O)c1sc(-c2cnccc2C(F)(F)F)nc1C	i
C/C(Cl)=C/Cc1c(C)[nH]c2c(ccc3ccccc32)c1=O	i
O=C(c1cc2n(n1)C(C(F)(F)F)CC(c1cccs1)N2)N1CCN(C(c2ccccc2)c2ccccc2)CC1 (stereo not given)	i
Cc1ccccc1Nc1nc(NCCO)c2ccccc2n1	i
COc1cc(/C=C2/SC(=Nc3ccccc3)NC2=O)ccc1OCc1ccccc1F	i
Cc1cc(N2CCN(C/C=C/c3ccccc3)CC2)n2c(nc3ccccc32)c1C#N	i
Cc1cc(C)cc(NC(=S)NNc2ccnc3cc(Cl)ccc23)c1	i
C=CCNC(=S)N1CCc2c([nH]c3ccccc23)C1C(F)(F)F (stereo not given)	i
Cc1ccc(O)c(NC(=O)c2cnn3c(C(F)(F)F)cc(-c4ccc(Br)cc4)nc23)c1	i
COC(=O)c1c(-c2c(F)cccc2Cl)noc1C=CNc1ccc(OC)cc1	i
COc1cc(C2CC(=O)NC(C)=C2C(=O)OC(C)C)c(OC)cc1Br (stereo not given)	i
O=C1C(=Nc2cccc(C(F)(F)F)c2)c2ccccc2N1CN1CCc2ccccc2C1	i
c1ccc(-c2ccc(-c3ccccn3)nc2)nc1	0.039µM*
Cc1ccc(N2CCN(CCNCc3ccc(F)cc3)[C@@H](Cc3ccc(O)cc3)C2)cc1	i
CC(NCc1cc(-c2ccccc2)ccc1O)c1cccc2ccccc12 (stereo not given)	i
CCCCOC(=O)C1=C(C)NC2=C(C(=O)CCC2)C1c1ccc(Cl)c(Cl)c1 (stereo not given)	i
CN(C)c1ccc(NC(=O)c2cccnc2C(=O)O)cc1	i
COc1ccc(NC(=O)Cn2ncc3ccccc32)cc1OC	i
O=C(Cc1cccs1)NC1CCN(CC(O)CN(Cc2ccccc2)S(=O)(=O)c2ccccc2)C1 (stereo not given)	i
N=c1c2c(n(Cc3ccc(Cl)cc3)c3c1CCC3)CCC2	0.091µM*
COc1cccc(CCOc2ccc3c(c2)C(=O)N(C(CC(C)C)C(=O)NC2CCN(Cc4ccccc4)CC2)[C@@H](Cc2ccc(O)cc2)C(=O)N3)c1 (stereo not given in full)	i
Cc1ccc(-n2c(SCc3cccc4ccccc34)nc3sc4c(c3c2=O)CCN(C)C4)cc1	i
O=C(Nc1ccc(Cl)c(Cl)c1)Nc1cc(C(=O)NCCCN2CCCCCC2)ccc1Cl	i

The list continues:
smiles	liver stage
O=C(O)c1c(F)cccc1Cl	i
CN1CCCC1CCNCc1cc(-c2ccnc3cc(Cl)ccc23)ccc1O (stereo not given)	i
Cc1ccc(S(=O)(=O)N(C)CCCNc2ccnc3cc(Cl)ccc23)cc1	i
CC(C)CN1C(=O)c2ccccc2C(C(=O)Nc2ccccc2F)C1c1cccs1 (stereo not given)	i
c1ccc(-c2nc(-c3ccc4cccnc4c3)n(-n3c(-c4ccc5cccnc5c4)nc(-c4ccccc4)c3-c3ccccc3)c2-c2ccccc2)cc1	i
CCN(CC)c1ccc(C=Cc2ccc3ccc(OC)cc3[n+]2CC)cc1	i
Cc1n(N)c2ccccc2[n+]1CC(=O)c1ccccc1	i
CCCOC(=O)C1=C(C)NC2=C(C(=O)CC(c3ccc(OC)c(OC)c3)C2)C1c1ccc(Cl)cc1Cl (stereo not given)	i
Cc1ccc(NC2=C(N3CCCCC3)C(=O)c3ccccc3C2=O)cc1	i
CN(C)CC(O)Cn1c2ccccc2c2ccccc21 (stereo not given)	i
Cc1ccccc1S(=O)Cc1ccc(C(=O)N2CCN(c3ccccn3)CC2)o1 (stereo not given)	i
c1ccc(CNc2nc(-c3ccccn3)nnc2-c2ccccc2)cc1	i
CC(C)CN1C(=O)N(CCCc2cccnc2)C(=O)C12CCN(C1CCOCC1)CC2	i
CCC(CC)CN1CCC(O)(c2ccc3oc(C(=O)Nc4ccc(OC)c(OC)c4)cc3c2)CC1	i
O=C(NN=Cc1ccncc1)c1cc(-c2cccc([N+](=O)[O-])c2)n[nH]1	i

A run of entries from the list above, for reference:
smiles	liver stage
O=C(O)c1c(F)cccc1Cl	i
CN1CCCC1CCNCc1cc(-c2ccnc3cc(Cl)ccc23)ccc1O (stereo not given)	i
Cc1ccc(S(=O)(=O)N(C)CCCNc2ccnc3cc(Cl)ccc23)cc1	i

The results go on:
smiles	liver stage
CCOC(=O)C1(Cc2ccc(OC)cc2)CCN(C(=O)c2scc3c2OCCO3)CC1	i
S=C(NN=Cc1ccccn1)NC1CC2CC1C1C=CCC21 (stereo not given)	0.026µM*
CC(=O)Nc1ccc(Oc2ccc(C(c3ccccc3)(c3ccccc3)c3ccc(Oc4ccc(NC(C)=O)cc4)cc3)cc2)cc1	i
CCc1ccc(CSc2nc3cc(OC)c(OC)cc3c(=N)n2CCc2ccccc2)cc1	i
CC(C)CN1C(=O)c2ccccc2C(C(=O)Nc2cccc(C(F)(F)F)c2)C1c1cccs1 (stereo not given)	i
CC(=O)N(C1=C(N2CCCC2)C(=O)c2ccccc2C1=O)c1ccccc1C	i
COc1cc(CN(CC[C@H](c2ccccc2)c2c(O)ccc3ccccc23)Cc2ccccc2)cc(OC)c1	i
Fc1ccccc1Nc1nc(NCc2ccccc2)c2ccccc2n1	0.69µM*
Cc1oc2c(cc(NS(=O)(=O)c3ccc(F)cc3)c3ccccc32)c1C(=O)OCc1ccccc1	i
CC(=O)Nc1nc(-c2ccc(F)cc2)cs1	i
O=S(=O)(c1ccc(Cl)cc1)N1CCN(C(=S)NCc2ccco2)CC1	i
O=C(/C=C/c1ccccc1)NNC(=O)c1cccnc1	i
COCCCNC(=O)/C=C/c1ccc(C(C)C)cc1	i
CC(=O)Nn1c(C(C)(C)C)nc2ccccc2c1=O	i
Cc1ccc(N=Cc2c(O)[nH]c(=S)[nH]c2=O)cc1	i
CCN1CCN(Cc2cc(=O)oc3cc(-c4ccccc4)c(O)cc23)CC1	i
CC(=O)Nc1ccc2nc(C)sc2c1	i
Nc1nc(N)c2nc(CCc3ccc(C(=O)N[C@@H](CCC(=O)O)C(=O)O)cc3)cnc2n1	i
O=C1NN=C(CC(=O)N2CC[C@@H](c3ccccc3)[C@H](O)C2)C2C=CC=CC12 (stereo not given in full)	i
CN1CCN(c2cc(-c3cccnc3)nc(-c3ccncc3)n2)CC1	i
O=C(Nc1ccc2c(c1)CN(C1CCSCC1)CC2)C1(c2ccccc2)CC1	i
O=C1C(Cc2ccccc2)N=C2c3ccccc3N=C(SCc3ccc(Cl)cc3)N12 (stereo not given)	i
O=C(C=Cc1ccccc1Cl)Nc1ccc(Oc2ccc3ccccc3c2Cl)c(Cl)c1	i
Cc1ccc(-c2nnc(SCCCC(=O)NC(Cc3ccccc3)c3ccccc3)n2-c2cccc(Cl)c2)cc1 (stereo not given)	i
CCCCN(CC)CCNC(=O)C1c2ccccc2C(=O)N(Cc2ccc(F)cc2)C1c1ccc(OC)cc1 (stereo not given)	0.089µM*
COc1cccc(-c2ccc(O)c(CN3CCCC(C)C3)c2)n1 (stereo not given)	i
Cc1[nH]c2ccccc2c1C=Cc1cc[n+](C)cc1	i
N#C/C(=C\c1ccccc1OCc1ccc(Cl)cc1Cl)c1nc2ccccc2[nH]1	i
CCCc1ccc(OCCNC(=O)CCNC(=O)Nc2cccc(Cl)c2)cc1	i
COc1ccc(C(=O)NC(c2ccccc2Cl)c2cc(Cl)c3cccnc3c2O)cc1 (stereo not given)	i
COCCN1C(=O)c2[nH]nc(-c3ccccc3O)c2C1c1ccc(SC)cc1 (stereo not given)	i
COC(=O)C1=C(C)NC2=C(C(=O)CC(c3ccc(Cl)cc3)C2)C1c1ccc(F)cc1 (stereo not given)	i
CCC(=O)NCc1nc2ccccc2n1Cc1ccc(C)cc1	i
CCCCCCCCn1c(C)[n+](CC)c2ccc(Cl)cc21	i
O=[N+]([O-])c1ccc2nc(Nc3ccc(Cl)c(Cl)c3)c(Nc3ccc(Cl)c(Cl)c3)nc2c1	i
C(=NNc1nc2ccccc2[nH]1)c1cccc(Oc2ccccc2)c1	i
CCN(CC)CCCNCC(=O)N1c2ccccc2Sc2ccccc21	i
CCCCCN(C(=O)c1ccc(C)cc1)C(C)c1nc2ccccc2c(=O)n1-c1ccccc1CC (stereo not given)	i
COc1cccc2cc(C(=O)Nc3cccc(C(F)(F)F)c3)c(=O)oc12	i
Cn1nccc1C(OCC(=O)N1CCOCC1)c1ccc(F)cc1 (stereo not given)	i
CCCCN(C)C(=O)CSc1nc(NCc2ccccc2)c2ccccc2n1	i
CC[n+]1c(/C=C/C=C2\N(C)c3ccccc3C2(C)C)n(-c2ccccc2)c2ccc(C)cc21	i
Cc1ccc2[nH]c(C)c(Br)c(=O)c2c1	0.25µM*
O=C(NCCCCNc1ccnc2cc(Cl)ccc12)c1ccccc1Br	i
O=C1C=CC(=O)N1c1ccc(Sc2ccc(N3C(=O)C=CC3=O)cc2)cc1	i
Cc1ccc(C(=O)NC2CCN(S(=O)(=O)c3c(C)cc(C)cc3C)CC2)cc1	i
CC[n+]1c(/C=C2\Sc3oc4ccccc4c3N2C)ccc2cc(C)ccc21	i
Cc1ccccc1NC(=S)NC(Cc1ccccc1)c1ccccc1 (stereo not given)	i
O=C(Nc1ccc(N2CCCCC2)cc1)c1cc2ccccc2o1	i

Laid out differently: results already given
O=C(NCCc1ccccc1)C(=O)NN=Cc1ccccc1
  liver stage: i
CCOC(=O)c1sc(-c2cnccc2C(F)(F)F)nc1C
  liver stage: i
C/C(Cl)=C/Cc1c(C)[nH]c2c(ccc3ccccc32)c1=O
  liver stage: i

An excerpt; rates above refer to the full screens.
